Source: PubChem (Southern Research Institute)
Vero viability: Vero cell cytotoxicity, dose response, cytotoxicity control for Vif-APOBEC3G degradation inhibitor project, Vero cells (AID 1117358) | viability, % at the top dose, mostly 40 µM; hits show CC50 in µM | 7% of 2,300 active | Vero viability, CellTiter-Glo ATP luminescence, 72 h; reference of the scale not given here;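 active = viability down to 80% or less at some dose; inactive = above 80% at all doses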
An asterisk follows results filed as active. A portion of the library; the hit share may differ from the screen's.

SMILES | Vero viability
Nc1c(S(=O)(=O)c2ccccc2)c2nc3ccccc3nc2n1/N=C/c1ccco1 | 104%
CCc1ccc(NS(=O)(=O)c2cccs2)cc1 | 87%
O=C(CN1CCN(c2nc(-c3ccccc3)cs2)CC1)Nc1ccc2c(c1)OCO2 | 98%
Nc1ccccc1-c1nnc(SCc2ccccc2Cl)[nH]c1=O | 88%
CC(C)c1ccc(-c2nc(N3CCCC3)nc3n[nH]c(N)c23)cc1 | >40µM*
COc1cccc(-c2nn3c(-c4ccccn4)nnc3s2)c1 | 91%
Cc1ccc(-c2nc(-c3ccccc3)no2)cc1 | 93%
Cc1ccccc1OCC(=O)NCC1CCCO1 (stereo not given) | 100%
CCc1cc(=O)n2[nH]c(C)c(-c3ccccc3OC)c2n1 | 94%
COc1ccc(S(=O)(=O)Cc2ccc(C(=O)N3CCN(c4ccccc4)CC3)o2)cc1 | 112%
COC(=O)C1=C(C)NC(=O)/C1=C\c1cccs1 | 106%
O=S(=O)(Nc1nccs1)c1ccc(Nc2nnc(-c3ccccc3)c3ccccc23)cc1 | 81%
O=C(N/N=C/c1ccc(OC(=O)c2cccs2)cc1)c1cccc(F)c1 | 96%
O=C(CN1C(=O)NC2(CCCCCCC2)C1=O)NCc1ccc2c(c1)OCO2 | 101%
Cc1nc2ccc(NC(=O)c3cc(S(=O)(=O)N4CCOCC4)ccc3C)cc2s1 | 91%
CC(c1nnnn1C1CCCCC1)N(Cc1ccccc1)Cc1cccnc1 (stereo not given) | 98%
O=C(CSc1ccccc1)N1CCN(c2ccccc2)CC1 | 98%
O=C(c1cc(-c2cccs2)on1)N1CCCCC1 | 97%
O=C(/C=C/c1cccs1)Nc1ccc(Br)cn1 | >40µM*
COc1ccc(-c2noc(Cc3ccc(Cl)cc3)n2)cc1OC | 102%
COC(=O)C1=C(O)/C(=C\c2ccc(CNC(=O)C(=O)Nc3ccc(C)cc3)o2)N=C1C | 90%
N=c1ccn(Cc2ccc(Cl)cc2)cc1 | 102%
Clc1c(-c2nnc3n2CCC3)sc2ccccc12 | 88%
O=S(=O)(Nc1ccc(Cc2ccncc2)cc1)c1ccc(Br)cc1 | 96%
CCCn1nc(NC(=O)c2ccccn2)c2cc3cc(C)ccc3nc21 | 106%
The results go on:
SMILES | Vero viability
Cc1cc(-c2cc(-c3ccc(Cl)cc3)nc(N)c2C#N)co1 | 103%
CNC(=O)CN(C)S(=O)(=O)c1ccc(F)cc1 | 92%
COc1ccccc1NC(=O)C(C)NS(=O)(=O)c1ccc(F)cc1 (stereo not given) | 105%
O=C1c2ccccc2C(=O)N1OCCOCCOCCBr | 95%
Cc1nc2cc(NC(=O)Nc3ccc(N4CCOCC4)cc3)ccc2n1C | 95%
C/C(=N\O)C(=O)NCc1ccccn1 | 87%
O=C(Nc1nc2ccc(Cl)cc2s1)C1CCCO1 (stereo not given) | >40µM*
Cc1ccc(C)n1Cc1ccc(C(=O)O)cc1 | 89%
CC1(C(=O)O)Cc2ccccc2C(=O)O1 (stereo not given) | 97%
Cc1cccc(C)c1NC(=O)CS(=O)CC(=O)NC1CCN(Cc2ccccc2)CC1 (stereo not given) | 92%
O=C1CN(C(=O)COC(=O)C23CC4CC(CC(O)(C4)C2)C3)c2ccccc2N1 | 96%
COC(=O)/C(=C(/F)SCC(C)=O)C(F)(F)F | 101%
O=S(=O)(Nc1ccc(N2CCOCC2)cc1)c1ccccc1 | 93%
COc1ccc(-c2[nH]c(-c3ccc(C)cc3)nc2SCC(=O)NCc2ccco2)cc1OC | 103%
CC(=O)NCCC(=O)NCc1ccc(F)cc1 | 102%
Cn1nc(C(F)(F)F)c(C#N)c1N1CCN(c2ccc(F)cc2)CC1 | >40µM*
CCOc1cc(NC(=S)NCC(C)C)c(OCC)cc1NC(=O)c1cccs1 | 95%
CCOC(=O)C1=C(C)N=c2s/c(=C/c3ccco3)c(=O)n2C1c1cccc(OC)c1 (stereo not given) | 94%
N=C1C=CC=C2C1=NC1(CCCCC1)N2O | 87%
Cc1[nH]c2ccccc2c1Cc1nnc(SCc2ccccc2)o1 | 104%
Clc1ccc(-c2cnc(Oc3ccccc3)nc2)cc1 | 97%
O=C(c1ccccc1)c1ccc(OC(=O)N2CCOCC2)cc1 | 97%
Nc1c(-c2ccccc2Cl)cnn1-c1cccc([N+](=O)[O-])c1 | 83%
Cc1ccc(Cn2c(SCC(C)C)nc3c2c(=O)n(C)c(=O)n3C)cc1 | 91%
CC1CCC/C(=C\Nc2ccc(O)cc2)C1=O (stereo not given) | 93%

Quoted from the listing:
Result of COc1ccc(-c2noc(Cc3ccc(Cl)cc3)n2)cc1OC under Vero viability: 102%
Result of CCOC(=O)C1=C(C)N=c2s/c(=C/c3ccco3)c(=O)n2C1c1cccc(OC)c1 (stereo not given) under Vero viability: 94%

The listing picks up with the 3 entries that preceded the break.
SMILES | Vero viability
Nc1c(-c2ccccc2Cl)cnn1-c1cccc([N+](=O)[O-])c1 | 83%
Cc1ccc(Cn2c(SCC(C)C)nc3c2c(=O)n(C)c(=O)n3C)cc1 | 91%
CC1CCC/C(=C\Nc2ccc(O)cc2)C1=O (stereo not given) | 93%
O=C(O)CSCc1c(F)cccc1Cl | 101%
O=C(CN1CCN(S(=O)(=O)c2ccc(Cl)s2)CC1)NCc1ccc(Cl)cc1 | 15µM*
O=C(NC1CCCC1)C(c1ccco1)N(Cc1ccccc1)C(=O)c1csnn1 (stereo not given) | 109%
CS(=O)(=O)N1CCCC(C(=O)NCCCN2CCC(Cc3ccccc3)CC2)C1 (stereo not given) | 94%
O=C(OCN1C(=O)c2ccccc2C1=O)C1CCCCC1 | 98%
Cc1csc(NC(=O)CCSCCc2ccccn2)n1 | 96%
O=C(Nc1cccc(S(=O)(=O)N2CCCCC2)c1)c1ccc2c(=O)n3c(nc2c1)CCCCC3 | 83%
CCCSc1nc2c(cnn2-c2ccc(C)cc2)c(=O)[nH]1 | 94%
COc1ccccc1-n1cnc2cc(NCc3cccs3)ccc21 | >40µM*
COc1ccc(N2CCN(C(=O)COc3ccccc3)CC2)cc1 | 98%
CCOC(=O)N1CCN(C(=O)c2cnn(-c3ccccc3)c2NC(=O)c2ccccc2F)CC1 | 94%
O=C(c1ccco1)N(Cc1ccco1)c1ccc(O)cc1 | 102%
CCN(CC)C(=O)c1ccc(CS(=O)(=O)c2ccc(OC)cc2)o1 | 105%
O=C(N/N=C/c1ccc(O)c(O)c1O)/C(=C/c1ccc([N+](=O)[O-])cc1)NC(=O)c1ccccc1 | 105%
O=C(O)CCN1CCOCC1 | 99%
COc1cc(/C=N/N=C2/NC(=O)C(c3ccccc3)S2)ccc1O (stereo not given) | 81%
CC1(C)CC(=O)c2cc(OCC(=O)NCc3cccnc3)ccc2O1 | 102%
CCCC(=O)N(CCc1ccc(OC)cc1)Cc1nc2ccccc2c(=O)[nH]1 | 97%
COc1cc(CC(=O)OCC(=O)Nc2cccc([N+](=O)[O-])c2)cc(OC)c1OC | 91%
COc1ccc(N2CCC(CNS(=O)(=O)c3cccc(C(F)(F)F)c3)C2)cc1 (stereo not given) | 98%
CCOC(=O)c1cccc(NC(=O)CCc2nc(-c3ccc(C)cc3)no2)c1 | 100%
CC1CN(Cc2cc(=O)[nH]c(C3CC3)n2)CC(C)O1 (stereo not given) | 96%
O=C(c1ccco1)N1CCN(S(=O)(=O)c2ccc(F)cc2)CC1 | 92%
Cc1sc2ncnc(SCc3ccco3)c2c1C | 99%
COc1ccccc1C=NC(CO)C(O)c1ccc([N+](=O)[O-])cc1 (stereo not given) | 96%
Later entries.
SMILES | Vero viability
Cc1nc2cc(-c3ccsc3-n3c(C)ccc3C)[nH]n2c(=O)c1Cl | 90%
Cc1ccc(-c2nn3c(C)nnc3s2)cc1NC(=O)CSc1ccc(Cl)cc1 | 94%
COc1ccccc1NC(=O)C1=C(C)Nc2nnnn2C1c1ccccn1 (stereo not given) | 93%
Cc1ccc2c(c1C)NC(=O)C2(O)CC(=O)c1ccc2c(c1)OCO2 (stereo not given) | 88%
COC(=O)CSc1nnc(CNC(=O)c2cccs2)n1-c1cc(OC)ccc1OC | 94%
CC(=O)Nc1ccc(NC(=O)CSCc2cnn(-c3ccccc3)c2-n2cccc2)cc1 | 91%
Cc1ccc(/C=C/C2=Cc3c(sc(NC(=O)CSc4n[nH]c(N)n4)c3C#N)C(C)(C)C2)o1 | 107%
CCOC(=O)C1=C(N)OC2=C(C(=O)CCC2)C1c1ccc(C)s1 (stereo not given) | 102%
O=C1CC(Nc2ccc(N3CCOCC3)cc2)C(=O)N1CCc1ccccc1 (stereo not given) | 106%
COc1cc(C(=O)NCC(c2ccco2)N2CCCC2)ccc1OCc1c(C)noc1C (stereo not given) | >40µM*
O=C(O)c1[nH]c2ccc(Cl)cc2c1CC(=O)N1CCN(C(=O)c2ccco2)CC1 | 96%
CCOc1ccc2nc(NC(=O)CN3CCN(c4ccccn4)CC3)sc2c1 | 103%
COc1ccc(NC(=O)C2CCCNC2)cc1OCC(C)C (stereo not given) | 100%
O=C(NCCc1c[nH]c2ccccc12)c1ccc(S(=O)(=O)NCc2ccco2)cc1 | 113%
CCOC(=O)CS(=O)(=O)c1ccc2ccccc2c1 | 87%
CCOC(=O)C1CCCN(Cc2ccc(O)c(OC)c2)C1 (stereo not given) | 98%
COc1ccc(C2SCC(C(=O)NCc3ccc(F)cc3)N2C(C)=O)cc1 (stereo not given) | 97%
COc1ccccc1NS(=O)(=O)c1cccc2cccnc12 | 104%
COc1ccccc1NC(=O)N1CCCC1C(=O)NC1CCCCC1 (stereo not given) | 102%
CC(C)(C)c1cc(C(C)(C)C)cc(S(=O)(=O)CCc2ccccn2)c1 | 94%
Cc1ccc(-c2csc(NC(=O)C3CC=CCC3C(=O)O)c2C(=O)OC(C)C)cc1 (stereo not given) | 96%
COc1ccc(N2C(=O)CC(Nc3ccc(N4CCOCC4)cc3)C2=O)c(OC)c1 (stereo not given) | 88%
C/C(=N\OCC(=O)Nc1ccc2c(c1)OCCO2)c1ccc2c(c1)OCCO2 | 100%
CN(C)c1ccc(/C=N\NC(=O)c2csnn2)cc1 | 92%
O=C(Nc1ccn(-c2ccccc2)n1)c1ccccc1Br | 95%

Structural class: those above containing a cyano group
SMILES | Vero viability
Cc1cc(-c2cc(-c3ccc(Cl)cc3)nc(N)c2C#N)co1 | 103%
Cn1nc(C(F)(F)F)c(C#N)c1N1CCN(c2ccc(F)cc2)CC1 | >40µM*
Cc1ccc(/C=C/C2=Cc3c(sc(NC(=O)CSc4n[nH]c(N)n4)c3C#N)C(C)(C)C2)o1 | 107%

The results go on:
SMILES | Vero viability
Cc1sc(-c2ccncc2)nc1OC(=O)c1ccccc1 | 97%
Cc1ccc(S(=O)(=O)N(CC(=O)N/N=C/c2cccc3c2OCCO3)c2ccccc2F)cc1 | 95%
Cc1cccc(NC(=O)CSc2nnc(-c3ccco3)c(-c3ccco3)n2)c1C | 103%
Cc1nn(Cc2ccc(Cl)cc2Cl)c(C)c1NC(=O)NC12CC3CC(CC(C3)C1)C2 | 92%
COc1ccc(NC(=O)Cn2c(=O)sc3ccccc32)cc1 | 101%
CCOc1ccc(-n2c(SC)nc3c(c2=O)SCC3)cc1 | 89%
C=C(c1ccc(OCCO)cc1)c1ccc(OCCO)cc1 | 97%
CC(NC(=O)CN(C)Cc1nc2ccccc2c(=O)[nH]1)c1ccccc1 (stereo not given) | 98%
CCOC(=O)c1c(NC(C)=O)sc2c1CCCNC2=O | 100%
COc1ccc(-n2c(SCC(=O)NNC(=O)c3ccccc3C)nnc2-c2ccncc2)cc1 | 97%
COc1ccc(OCCOC(=O)c2cccc(-n3cnnn3)c2)cc1 | 107%
OCCN1CCN(CC(O)COc2ccc3ccccc3c2)CC1 (stereo not given) | 93%
CCOc1ccc2nc(SCc3ccc(C(=O)OC)o3)[nH]c2c1 | 100%
Cc1ccc(S(=O)(=O)N2CCOCC2)cc1C(=O)Nc1nc2ccccc2[nH]1 | 96%
O=C(O)c1cccc(NCc2ccncc2)c1 | 92%
CCOC(=O)Nc1ccc2c(CN3C(=O)NC4(CCCC4)C3=O)cc(=O)oc2c1 | 84%
Cc1nc(NC(=O)CN2CCOCC2)sc1-c1ccccc1 | 92%
COc1ccc(NC(=S)NCCc2ccccc2OC)c(OC)c1 | >40µM*
Cc1ccc(SCCC(=O)NCc2ccco2)cc1 | 92%
CC(C)Cn1nc(NC(=O)C(C)(C)C)c2cc3ccccc3nc21 | 101%
O=C(Cc1ncn[nH]1)NCCc1ccccc1 | 102%
CCc1cc2c(N3CCCCC3)ncnc2s1 | >40µM*
CC(C)CC(c1nnnn1C1CCCCC1)N1CCN(c2ncccn2)CC1 (stereo not given) | 94%
CC(=O)Nc1ccc(S(=O)(=O)Nc2ccc(NC(=O)c3ccco3)cc2)cc1 | 95%
CCn1c(C(=O)N2CCCC(C(=O)NCCc3ccc(C)cc3)C2)cc2sccc21 (stereo not given) | 103%

A second format for 3 compounds above:
CC1(C)CC(=O)c2cc(OCC(=O)NCc3cccnc3)ccc2O1
  Vero viability = 102%

O=C(O)CCN1CCOCC1
  Vero viability = 99%

Cc1ccccc1OCC(=O)NCC1CCCO1 (stereo not given)
  Vero viability = 100%

More results follow.
SMILES | Vero viability
COc1cc(C(=O)Nc2cccc(-c3nc4ncccc4o3)c2C)cc(OC)c1OC | 97%
CCN(CC)CCNC1=NCCn2c1cc1cc(OC)ccc12 | >40µM*
COC(=O)c1cnn2c(C)c(Cc3cccc(F)c3)c(C)nc12 | >40µM*
O=C(Nc1ccccc1N1CCCCC1)c1ccccc1F | 92%
Cc1ccc(NC(=S)NNc2ncc(C(F)(F)F)cc2Cl)cc1 | >40µM*
C=C(C)COc1ccc2c(C)c(C)c(=O)oc2c1OCC(=C)C | 93%
COC(=O)C1=C(C)Nc2ncnn2C1c1ccc(OC(=O)c2ccccc2)cc1 (stereo not given) | 99%
CCOc1cccc(=O)c2c(C)n(Cc3ccco3)c(C)c12 | 91%
CCOC(=O)c1c(-c2cccs2)csc1NC(=O)CC(C)C | 96%
Cc1ccc(NCc2nnc(SCc3ccc(C#N)cc3)n2Cc2ccco2)c(C)c1 | 81%
O=C(NCC1CCCO1)c1ccc(CS(=O)(=O)Cc2ccc(F)cc2)o1 (stereo not given) | 97%
COc1ccccc1NC(=O)c1oc2ccc(C)cc2c1C | 93%
Cc1ccc(S(=O)(=O)Nc2ccc3c(c2)c2c(n3S(=O)(=O)c3ccc(C)cc3)CCCC2=O)cc1 | 98%
O=S(=O)(c1ccc(OCc2nc3ccccc3s2)c(Cl)c1)N1CCOCC1 | 98%
